Rango dissoc inh: prevents RanGTP from dissociating the Rango-importin beta complex; Biochemical FRET Rango-importin beta, RanGTP-induced dissociation; AID 540253; hit rate 0.071% among 340,000; Potency, µM (top dose mostly 46.1 µM), inactives show top-dose activity change, negative = inhibition; active means falling FRET ratio curve, often poorly fitted, with flat reads before Ran was added; inconclusive means other falling curves, or compound fluorescence or quenching; inactive means flat or rising ratio curve;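 note: potency is the fitted concentration of half-maximal effect; % of control where 0% means no effect; nearly all actives have a fitted effect of over 45% in size; -100% = wells without RanGTP and RCC1; the record marks most hits as doubtful in a second field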
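Rango/importin beta premix (0.1/0.25 uM final), PBS + 1 mM DTT + 0.02% Tween-20 + 0.1% BSA; cpd 5 min RT; FRET pre-read; + RanGTP-RCC1 (0.6 uM Ran, 2 mM GTP, 0.2 uM RCC1); 45 min RT; FRET post-read, ex 430, em 486/530 nm.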
Rango complex inh: Rango-importin beta binding inhibition; Q14974; Rango CFP/YFP FRET sensor + importin beta, 45 min; Potency, µM (top dose mostly 92.2 µM), for the others: top-dose inhibition of complex formation; hit rate 0.031% among 340,000; AID 540263; active = rising FRET ratio curve, often small or poorly fitted; inconclusive = mostly compound fluorescence or quenching in the first reads; inactive = flat curves in all reads;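 note: potency is the fitted concentration of half-maximal effect; 0% = DMSO wells and 100% = buffer wells lacking importin beta; nearly all actives have a fitted effect of over 15% in size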
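FRET biosensor (snurportin 1 IBB flanked by EYFP and cerulean), 50 nM, with compound 5 min, then 0.125 microM importin beta in PBS, 1 mM DTT, 0.02% Tween-20, 0.1% BSA. CFP/YFP ratio read after 45 min at room temperature; pre-read flags interference.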
miR-21 reporter: raises the signal of a miR-21 reporter | HeLa miR-21 FLuc reporter, luciferase, 48 h | 340,000 tested, under 10 active | AID 2288 | Potency, µM (titrated, usually from 38.3 µM), inactives show at the top dose reporter change, positive = more light; active = well fitted rising curve with a large enough effect; inconclusive = small, poorly fitted or top-dose-only effect; inactive = no such curve, though single readings can be large or run the other way;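 note: % of control where 0% means no effect; miR-21 action dims this reporter so a rising signal means less miR-21 action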
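HeLa cells stably expressing CMV-driven firefly luciferase with a downstream miR-21 binding sequence, endogenously expressing miR-21, were treated with titrations (up to about 40uM final) for 48 hours at 37 degree Celsius. Luciferase luminescence was read after lysis.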
GLA inh pH 4.5: alpha-galactosidase A (human) inhibition, pH 4.5; P06280; purified enzyme, 4-MU-alpha-Gal fluorescence, pH 4.5; activity change, negative = inhibition, % at 105 µM; 230,000 tested, under 10 active; AID 1467; inconclusive = small, poorly fitted or top-dose-only inhibition, or a rising curve; inactive = flat fitted curve, though single readings scatter; no compound was filed as active;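 note: 0% = full activity with enzyme and -100% = basal without enzyme; dose as in the result columns while the protocol names 77 µM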
Target sequence (P06280 whole entry, looked up): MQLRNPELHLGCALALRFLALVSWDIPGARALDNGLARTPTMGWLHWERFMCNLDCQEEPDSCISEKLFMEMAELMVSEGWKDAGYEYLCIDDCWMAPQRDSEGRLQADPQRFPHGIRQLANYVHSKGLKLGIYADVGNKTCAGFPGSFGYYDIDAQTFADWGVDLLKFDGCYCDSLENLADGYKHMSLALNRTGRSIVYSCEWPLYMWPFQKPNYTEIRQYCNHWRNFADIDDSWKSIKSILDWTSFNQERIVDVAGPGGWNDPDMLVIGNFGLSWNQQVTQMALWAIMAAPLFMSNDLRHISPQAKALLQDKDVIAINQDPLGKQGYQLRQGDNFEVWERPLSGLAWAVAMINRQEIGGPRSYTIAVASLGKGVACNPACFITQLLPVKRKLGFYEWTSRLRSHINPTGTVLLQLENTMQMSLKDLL
Numbers without * were called inactive; u = inconclusive; x = not tested or not shown; & = joins results of further samples. This is a subset; rates above refer to the full screens.

Preview:
SMILES	Rango dissoc inh	Rango complex inh	miR-21 reporter	GLA inh pH 4.5
O=c1cc(CSc2nc(NCc3ccccc3)c3ccccc3n2)nc2ccc(Cl)cn12	9%	-2.5%	-3%	2
O=C(CCSc1ccccc1)Nc1ccc(OCc2ccccc2)cc1	11%	0.7%	-10%	4
C=CCN1C(=O)C(=O)N(Cc2nc3ccccc3s2)C1=O	-6%	-3.2%	-67%	x

All compounds of this part, previewed entries included:
SMILES	Rango dissoc inh	Rango complex inh	miR-21 reporter	GLA inh pH 4.5
O=c1cc(CSc2nc(NCc3ccccc3)c3ccccc3n2)nc2ccc(Cl)cn12	9%	-2.5%	-3%	2
O=C(CCSc1ccccc1)Nc1ccc(OCc2ccccc2)cc1	11%	0.7%	-10%	4
C=CCN1C(=O)C(=O)N(Cc2nc3ccccc3s2)C1=O	-6%	-3.2%	-67%	x
Cc1onc(-c2ccccc2)c1C(=O)Nc1nnc(C(C)C)s1	-12%	1.8%	3%	x
CCn1cc(C(=O)N2CCCC2)c(=O)c2cc(S(=O)(=O)N3CC(C)CC(C)C3)ccc21 (centres undefined)	-11%	1.5%	0%	x
S=c1[nH]nc(CCc2ccccc2)n1-c1ccc(Cl)cc1	5%	-0.3%	-2%	-9
O=C(Cc1cccs1)N1CCN(C(=O)C2CCCO2)CC1 (centres undefined)	-21%	u	-8%	4
CCN(CC)S(=O)(=O)c1cccc(C(=O)N/N=C/c2ccccc2OCC(=O)O)c1	-7%	3.4%	-4%	0
CC(=O)c1c(Nc2ccccc2)sc(C(=O)c2ccccc2)c1C	-9%	u	-3%	-2
CC(C)CC(=O)Nc1nnc(S(=O)(=O)N(C)Cc2ccco2)s1	0%	3.3%	-3%	x
COc1cccc(Cn2nnc(C(=O)NCc3ccccc3Cl)c2N)c1	-7%	0.5%	-19%	-15
OC(COc1ccccc1)CN1CCN(c2ccccc2)CC1 (centres undefined)	0%	0.0%	x	x
CCS(=O)(=O)NCc1csc(-c2ccccc2)n1	-1%	0.4%	-28%	-1
CC#CCN1c2ccccc2[C@]23C[C@@H](C(=O)OC)N(C(=O)OCC)C2=NC(C(=O)OC)=C(C(=O)OC)[C@H]13	-2%	-0.6%	12%	-5&-8
CC1CN(C/C(=N\O)C23CC4CC(CC(C4)C2)C3)CC(C)O1 (centres undefined)	2%	-1.1%	-4%	x
CC(C)(C)Nc1nc2ccc([N+](=O)[O-])cc2o1	0%	4.5%	-5%	-5
O=C(CSc1ncccn1)Nc1ccccc1	-5%	0.5%	-19%	8
CC(=O)c1cccc(NC(=S)NCc2ccccc2)c1	-5%	0.4%	-1%	x
Cc1ccc(-n2nc3c(Cl)nnc(C)c3c2C)cc1	-5%	u	-1%	3
OC(COCC1CC=CCC1)Cn1cnc2ccccc21 (centres undefined)	-11%	-2.0%	-7%	-4
COc1cc(OCc2ccc(C)cc2)ccc1CNC[C@H]1O[C@@H](n2cnc(C(N)=O)n2)[C@H](O)[C@@H]1O	7%	-3.0%	x	x
CC(C)(CCl)C(=O)Nc1ccc(OC(F)(F)F)cc1	13%	-0.6%	-8%	-2
CCCn1c(=N)n(CC(=O)c2ccc(OCC(=O)OC)cc2)c2ccccc21	23%	4.7%	x	x
Cc1nonc1OC(C)CNc1ccc([N+](=O)[O-])cc1 (centres undefined)	17%	2.4%	-9%	-8
CCCc1cc2c(cc1NC(=O)c1ccc(Br)cc1)OCO2	-8%	0.0%	0%	-2
COc1ccc(N2C(=O)c3ccc(C(=O)Nc4ccc(NC(C)=O)cc4)cc3C2=O)cc1	-12%	2.6%	5%	x
O=C(O)CCS(=O)(=O)c1ccc(-c2ccccc2)cc1	14%	2.2%	-6%	-5
CC(C)(C)c1ccc(C(=O)Nc2ccccc2Cl)cc1	8%	0.2%	-37%	0
COc1ccc(Cl)cc1Nc1nc(-c2sc(NC(=O)CC(C)C)nc2C)cs1	-15%	-1.9%	12%	0
COc1ccc(N2CCN(C(=O)c3ccc(Cl)c(S(=O)(=O)N4CCCC4)c3)CC2)cc1	11%	2.6%	5%	3

Molecules from the list above that contain a tert-butyl group, in the order listed:
SMILES	Rango dissoc inh	Rango complex inh	miR-21 reporter	GLA inh pH 4.5
CC(C)(C)Nc1nc2ccc([N+](=O)[O-])cc2o1	0%	4.5%	-5%	-5
CC(C)(C)c1ccc(C(=O)Nc2ccccc2Cl)cc1	8%	0.2%	-37%	0

The list continues:
SMILES	Rango dissoc inh	Rango complex inh	miR-21 reporter	GLA inh pH 4.5
CC(=O)c1cccc(S(=O)(=O)NCC(C)(C)N2CCOCC2)c1	-2%	3.6%	0%	x
CN1N=C(N)c2cn(C3OC(COP(=O)(O)O)C(O)C3O)c3ncnc1c23 (centres undefined)	-17%	u	x	x
CCn1c(SCC(=O)NCC2CCCO2)nc2ccccc21 (centres undefined)	-11%	-1.6%	x	x
COc1cc2c(cc1NC(=O)COc1ccc3ccccc3c1)oc1ccccc12	2%	0.7%	3%	3
CCN(CC(=O)NCc1cccs1)C(=O)c1cccc(S(=O)(=O)Nc2ccccc2Cl)c1	4%	-0.2%	x	x
COc1ccc(NC(=O)c2cc(C3CC3)on2)c(OC)c1	18%	-2.6%	-49%	-5
c1coc(CNc2nc3sc4c(c3c3ncnn23)CCCC4)c1	-6%	2.7%	-8%	-4
COC(=O)c1ccc(C)c(NC(=O)c2c(-c3ccccc3)noc2C)c1	5%	u	10%	-8
C/C(C=O)=C/c1ccccc1	27%	-0.2%	x	x
O=C(Nc1ccccc1)C1CCCN(C(=O)c2ccc(Cl)cc2)C1 (centres undefined)	-11%	0.1%	8%	-1
CC1CCN(C(=O)Cn2c(=O)n(-c3ccc(F)cc3)c(=O)c3sccc32)CC1	7%	-0.4%	3%	3
Cc1c(C(=O)Nc2cccc([N+](=O)[O-])c2)cnn1-c1ccccc1	1%	0.0%	-15%	x
S=C(Nc1ccccc1)N1CCCCCC1	-10%	1.2%	-10%	-28
CN(CCO)S(=O)(=O)c1ccc2c(c1)C(=NNC(N)=O)c1cc(S(=O)(=O)N(C)CCO)ccc1-2	7%	-1.9%	-1%	-5
CSCCC(NC(=O)c1ccc(Cl)cc1)C(=O)OCC(=O)NCc1ccco1 (centres undefined)	0%	0.3%	x	x
COc1ccc(N2CC(C(=O)Nc3cccnc3)CC2=O)cc1 (centres undefined)	1%	3.9%	2%	x
C=CCn1c(SCC(=O)N(C)CC(=O)Nc2ccc(C)cc2)nnc1-c1ccncc1	-3%	-2.3%	x	x
O=C(/C=C/c1ccc(F)cc1)NCCC1=CCCCC1	-9%	0.5%	-61%	-4
COc1ccc(/C=N/OC(=O)Nc2ccccc2OC)cc1	28%	-1.1%	-28%	-7
COc1ccc(-c2cc(-c3c(O)c(OC)c4occc4c3OC)[nH]n2)cc1OC	0%	0.1%	-25%	5
COc1ccc(S(=O)(=O)N2CCCCCC2)cc1N	-6%	3.6%	-3%	3
COc1ccc(CN2CCNC(=O)C2CC(=O)NCCSc2nccn2C)cc1OC (centres undefined)	5%	-1.6%	-9%	-15
COc1ccccc1NC(=O)COC(=O)CCC1CCCC1	6%	1.5%	x	x
CN(C(=O)c1cccc(NC(=O)Cc2ccc(NC(=O)C3CCN(C(=O)c4ccccc4)CC3)cc2)c1)C1CCCCC1	-2%	-3.0%	x	x
Cc1ccc(N(CC(=O)N/N=C/c2cccs2)S(C)(=O)=O)cc1Cl	-5%	3.2%	-5%	-2
O=C(N/N=C/C=C/c1ccco1)c1ccncc1	6%	0.2%	0%	2
C/C(Cn1nnc2ccccc21)=N\NC(=O)c1cccc(Br)c1	10%	-0.4%	-27%	-3
CCCOc1ccc(/C=N/Nc2ccc(C(=O)O)cc2)c(OCCC)c1	-14%	-1.1%	-69%	1
CCN(CC(=O)N1CCOCC1)S(=O)(=O)c1ccc(C)cc1	-4%	0.4%	-2%	-4
Cc1ccc(C)c(C(=O)CSc2nc3ccccc3c(=O)[nH]2)c1	-4%	0.1%	3%	2
CCOC(=O)CSc1nc2c(sc(=S)n2-c2ccccc2)c(=O)n1-c1ccc(OC)cc1OC	8%	-1.7%	3%	x
CSc1ccc(Cn2nnc(C(=O)NCc3ccccc3)c2N)cc1	u	-0.7%	-10%	2
Cc1ccc(C)c(N2CC(C(=O)O)CC2=O)c1 (centres undefined)	1%	3.3%	7%	5
Cc1c(Cl)cccc1NC(=O)CNC(=O)Cc1n[nH]c(=O)c2ccccc12	6%	0.5%	x	x
COc1cccc(N2CCN(CC(=O)Nc3ccc(S(=O)(=O)N4CCCCCC4)cc3)CC2)c1	0%	-1.9%	x	x
Cc1ccc(C)c(OCCn2cc(/C=C(\C#N)C(=O)NCc3ccco3)c3ccccc32)c1	4.1µM*	u	-9%	-6
Cc1ccc(SCC(=O)N2CC(C)OC(C)C2)cc1 (centres undefined)	-17%	5.5%	-6%	0
CCC(C)c1c(O)nc(SCC(=O)c2ccccc2)[nH]c1=O (centres undefined)	1%	3.0%	-26%	7
C/C(=N\NC(=O)c1ccc(C)cc1C)c1ccc(-n2ccnc2)cc1	-16%	-0.1%	-29%	-13
COc1ccc(CCNCC(=O)Nc2ccc(OC(F)F)cc2)cc1	-5%	-0.3%	-1%	x
Cc1ccc(NC(=O)CCNC(=O)c2ccccc2Cl)nc1	15%	3.2%	0%	x
N/C(=N\OC(=O)CCc1ccccc1)c1ccc(Br)cc1	16%	0.6%	-29%	9
CN1CCN(Cc2nc(-c3cccs3)no2)CC1c1ccccc1 (centres undefined)	12%	-1.7%	-2%	-3
CCC(=O)c1ccc(O)cc1	18%	1.3%	-12%	x
COC(=O)CN1C(=O)CC(C)(C)S(=O)c2ccccc21 (centres undefined)	0%	0.9%	-2%	2

Reformatted: 6 of the compounds above
The line under a structure holds: Rango dissoc inh	Rango complex inh	miR-21 reporter	GLA inh pH 4.5
CC(C)(C)c1ccc(C(=O)Nc2ccccc2Cl)cc1
→ 8%	0.2%	-37%	0
COc1ccc(Cl)cc1Nc1nc(-c2sc(NC(=O)CC(C)C)nc2C)cs1
→ -15%	-1.9%	12%	0
COc1ccc(N2CCN(C(=O)c3ccc(Cl)c(S(=O)(=O)N4CCCC4)c3)CC2)cc1
→ 11%	2.6%	5%	3
CC(=O)c1cccc(S(=O)(=O)NCC(C)(C)N2CCOCC2)c1
→ -2%	3.6%	0%	x
CN1N=C(N)c2cn(C3OC(COP(=O)(O)O)C(O)C3O)c3ncnc1c23 (centres undefined)
→ -17%	u	x	x
CCn1c(SCC(=O)NCC2CCCO2)nc2ccccc21 (centres undefined)
→ -11%	-1.6%	x	x

Later entries.
SMILES	Rango dissoc inh	Rango complex inh	miR-21 reporter	GLA inh pH 4.5
Cc1nnc2ccc(-c3cccc(NC(=O)Cc4cccs4)c3)nn12	8%	2.6%	15%	7
CCOc1ccccc1NC(=O)CN1C(=O)COc2ccccc21	-4%	-4.1%	-8%	x
CCCn1cnnc1CNC(=O)C1CCC(=O)N(CCCc2ccccc2)C1 (centres undefined)	-8%	-1.5%	0%	x
Cc1[nH]n(-c2ccc([N+](=O)[O-])cc2)c(=O)c1C=NCCc1c(C)[nH]c2ccccc12	10%	-1.0%	2%	-10
Cc1ccccc1-n1c(SCc2cc(=O)n3ccccc3n2)nc2[nH]ncc2c1=O	-10%	0.3%	-16%	-6
COc1cccc(-c2ccc(=O)n(CC(=O)Nc3ccc(C(=O)N4CCCC4)cc3)n2)c1	-4%	-3.4%	-8%	4
Cn1nc(C(F)(F)F)c(-c2ccc(F)cc2)c1NC(=O)c1cccnc1	-1%	u	7%	5
COC(=O)c1ccc(/C=C(\C#N)c2nc3ccccc3s2)cc1	u	u	-8%	-21
c1ccc(NC2=NCCN2CC2CCCCCC2)cc1	11%	2.1%	x	x
CCn1c(CC(=O)Nc2ccccc2)nnc1SCC(=O)N1CCOCC1	-4%	-0.4%	1%	x
COc1ccc(C(=O)Nc2cc3c4c(c2)CC(=O)N4CCC3)cc1	13%	-2.6%	x	x
COc1ccc(N2CCN(S(=O)(=O)CCNC(=O)c3ccco3)CC2)cc1	-1%	-0.6%	x	x

Bioassay records deposited in PubChem by National Center for Advancing Translational Sciences (NCATS).
